Screens: PubChem, Vanderbilt University
GIRK2 activ: activators of human GIRK2 potassium channels; G protein-activated inward rectifier potassium channel 2 (Homo sapiens), P48051; HEK293-GIRK2 thallium flux, Thallos fluorescence; calls only for hits at 25 µM; hit rate 0.05% among 63,000;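 active = among the strongest 0.2% of first-round signals and kept after retests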;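 also: first round at about 10 µM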
Target sequence (P48051 whole entry, looked up): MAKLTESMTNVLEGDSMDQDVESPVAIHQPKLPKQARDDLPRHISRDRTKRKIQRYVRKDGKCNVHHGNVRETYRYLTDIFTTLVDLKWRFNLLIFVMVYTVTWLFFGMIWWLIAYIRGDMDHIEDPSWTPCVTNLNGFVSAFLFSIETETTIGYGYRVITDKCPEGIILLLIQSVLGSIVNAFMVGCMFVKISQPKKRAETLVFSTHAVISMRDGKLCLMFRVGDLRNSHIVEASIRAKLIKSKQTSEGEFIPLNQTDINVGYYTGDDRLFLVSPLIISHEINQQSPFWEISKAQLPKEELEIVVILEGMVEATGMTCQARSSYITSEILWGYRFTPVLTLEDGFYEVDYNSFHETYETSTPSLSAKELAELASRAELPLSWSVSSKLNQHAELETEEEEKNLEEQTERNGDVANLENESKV
Calls only; i = inactive.

nr	GIRK2 activ	compound
1	i	COc1ccc(NC(=O)C2=Cc3ccccc3OC=C2)c(OC)c1
2	i	O=C(c1nc2ccccc2s1)N1CCOC(c2ccccc2)C1 (centres undefined)
3	i	O=C(c1ccc([N+](=O)[O-])o1)N(C(=O)N1CCCCC1)c1ccccc1
4	i	COc1ccc(NC(=O)CCCSc2ccc(NC(C)=O)nn2)cc1OC
5	i	COc1ccc(-c2coc3cc(OCCN4CC(C)OC(C)C4)ccc3c2=O)cc1OC (centres undefined)
6	i	COc1ccc(C(=O)Nc2ccc(-n3nnn(C)c3=O)cc2)cc1
7	i	CCOc1ccc(S(=O)(=O)NCC2CCN(C(C)C)CC2)cc1F
8	i	O=C(Cn1cc(-c2nc(-c3ccc(Cl)cc3)no2)ccc1=O)NCC1CCCO1 (centres undefined)
9	i	CC(=O)c1ccc(N2CCN(C(=O)c3cc(=O)c(OCc4ccccc4)co3)CC2)cc1
10	i	Cc1nc(-c2nnc(NC(=O)c3cccc(S(=O)(=O)C(C)C)c3)o2)cs1
11	i	Cc1ccc(-n2cc(C(=O)N3CCN(Cc4ccccc4)CC3)nn2)cc1
12	i	CCOc1ccc(C(=O)Nc2ccc3c(c2)CCCN3C(=O)c2ccccc2)cc1
13	i	CCc1ccccc1NC(=O)Cn1cc(C(=O)N2CCCC2)c(=O)c2ccc(C)nc21
14	i	CCc1nc2sc(C(c3cccc(C(F)(F)F)c3)N3CCCC(C)C3)c(O)n2n1 (centres undefined)
15	i	Cc1cn2c3c(=O)[nH]c(=O)n(C)c3nc2n1-c1ccc(C(F)(F)F)cc1
16	i	Cn1nc(C(=O)N2CCCC(c3nnc(-c4cccs4)o3)C2)ccc1=O (centres undefined)
17	i	CCSc1ccccc1C(=O)NCC#CCOc1ccccc1C(N)=O
18	i	Cc1ccc(NC(=O)CCCn2nnc3ccccc3c2=O)nc1
19	i	COCCNC(=O)c1cc2c(=O)n(C)c(=O)n(C)c2n1Cc1ccco1
20	i	Cc1cc(C)n(CC(N)=O)c(=O)c1C#N
21	i	CN(Cc1ccccc1)c1c([N+](=O)[O-])c(=O)n(C)c2ccccc12
22	i	O=C(Nc1ccc(S(=O)(=O)Nc2nccs2)cc1)C1CN(c2nc3ccc(F)cc3s2)C1
23	i	COc1cc(OC)c(NC(=O)Cn2cnc3c(-c4ccc(F)cc4)csc3c2=O)cc1Cl
24	i	COc1ccc(-c2nc(C)ncc2-c2ccccc2)c(O)c1

Part of the list above in order of molar mass, lowest first.
nr	GIRK2 activ	compound
24	i	COc1ccc(-c2nc(C)ncc2-c2ccccc2)c(O)c1
18	i	Cc1ccc(NC(=O)CCCn2nnc3ccccc3c2=O)nc1
16	i	Cn1nc(C(=O)N2CCCC(c3nnc(-c4cccs4)o3)C2)ccc1=O (centres undefined)
23	i	COc1cc(OC)c(NC(=O)Cn2cnc3c(-c4ccc(F)cc4)csc3c2=O)cc1Cl

Three of these compounds, set out differently:
19. COCCNC(=O)c1cc2c(=O)n(C)c(=O)n(C)c2n1Cc1ccco1
  GIRK2 activ = i
20. Cc1cc(C)n(CC(N)=O)c(=O)c1C#N
  GIRK2 activ = i
21. CN(Cc1ccccc1)c1c([N+](=O)[O-])c(=O)n(C)c2ccccc12
  GIRK2 activ = i

(continued)
nr	GIRK2 activ	compound
25	i	O=C(c1ccoc1)N1CCC(CNS(=O)(=O)Cc2cc(F)ccc2F)CC1
26	i	COc1ccc(CNC(=O)C2CCN(c3ncccc3-c3nc(-c4ccccc4)no3)CC2)c(OC)c1
27	i	COc1nn(C)cc1C(=O)NCC1(CO)CC1
28	i	COCCN(Cc1ccsc1)C(=O)C1(c2cccs2)CCCC1
29	i	COc1ccc(-c2cc(NCCc3ccc(OC)c(OC)c3)ncn2)cc1
30	i	Cc1ccc(NC(=O)C2OC3OC(C)(C)OC3C3OC(C)(C)OC23)cc1F (centres undefined)
31	i	COc1ccc(OC)c(NC(=O)C2=Cc3cc(C)ccc3OC=C2)c1
32	i	O=C(Nc1ccc(N2CCCCS2(=O)=O)cc1)c1cccc([N+](=O)[O-])c1
33	i	CSc1ncc(Cl)c(C(=O)Nc2ccc(Cl)cn2)n1
34	i	COc1ccc(C(=O)N2CCC(Cn3cnc4cc(C)c(C)cc43)CC2)c(OC)c1
35	i	O=C(COc1ccc(Cl)cc1Cl)NCC1CCN(C(=O)c2ccoc2)CC1
36	i	c1ccc(C2=NN(c3ccccc3)C(c3ccccc3)C2)cc1 (centres undefined)

Five of the compounds above, with bars between the fields.
nr | Structure | GIRK2 activ
26 | COc1ccc(CNC(=O)C2CCN(c3ncccc3-c3nc(-c4ccccc4)no3)CC2)c(OC)c1 | i
27 | COc1nn(C)cc1C(=O)NCC1(CO)CC1 | i
28 | COCCN(Cc1ccsc1)C(=O)C1(c2cccs2)CCCC1 | i
29 | COc1ccc(-c2cc(NCCc3ccc(OC)c(OC)c3)ncn2)cc1 | i
30 | Cc1ccc(NC(=O)C2OC3OC(C)(C)OC3C3OC(C)(C)OC23)cc1F (centres undefined) | i

New compounds follow
nr	GIRK2 activ	compound
37	i	CN1CCN(C(=O)c2cc(-c3cccs3)n(CC(=O)NCCC3=CCCCC3)n2)CC1
38	i	CSC(=O)OCC1=C[C@@H]2OC(=O)C3=CO[C@@H](O[C@@H]4O[C@H](CO)[C@@H](O)[C@H](O)[C@H]4O)[C@H]1[C@@H]32
39	i	COc1ccc(-c2noc(-c3ccc(=O)n(CC(=O)Nc4ccc5c(c4)OCCO5)c3)n2)cc1
40	i	CCNS(=O)(=O)c1cc(N(C)S(=O)(=O)c2ccc(C)cc2)c(C)cc1C
41	i	CC1(C)OCC2(CO1)CN(S(=O)(=O)c1ccc(OC(F)(F)F)cc1)C2
42	i	CC(NC(=O)C(=O)NCCC(O)c1ccoc1)c1ccccc1 (centres undefined)
43	i	Cc1cccc(C)c1NC(=O)Cn1nnc(-c2nc(-c3ccc(F)cc3)no2)c1N
44	i	Cc1cc(NCCCn2ccnc2)n2nc(C)c(-c3ccc(Cl)cc3)c2n1
45	i	O=c1[nH]c2nc(NCCCn3cccn3)ncc2c(=O)n1Cc1ccccc1F
46	i	NC(=O)c1nnn(Cc2cc(F)cc(F)c2)c1N
47	i	O=C(Cn1nc2c(Oc3ccccc3)nccn2c1=O)Nc1cc(F)ccc1F
48	i	CC(=O)c1ccc(NC(=O)CCc2c(C)nn(-c3nc(C)c(C)c(=O)[nH]3)c2C)cc1
49	i	Cc1nc(C(=O)NCc2ccccc2Cl)cc(-n2cccn2)n1
50	i	O=C(CC(c1ccccc1)c1ccccc1)NCc1n[nH]c(=O)c2ccccc12
51	i	Cc1nc(-c2ccc(F)cc2)sc1-c1cc(C(=O)N2CCN(C(=O)c3ccco3)CC2)n[nH]1
52	i	COc1cc(/C=C2\SC(=S)N(c3cccc(O)c3)C2=O)ccc1O
53	i	O=C(Nc1nc2c(s1)CN(C(=O)c1cccc(Cl)c1)CC2)NC1CCCC1
54	i	O=C1CCC(C(=O)Nc2nc3c(s2)COCC3)N1 (centres undefined)
55	i	COc1cccc(-c2nc(Cn3nnc(C(=O)Nc4cc(C)cc(C)c4)c3N)c(C)o2)c1OC
56	i	CCOc1ccc(-c2ccc(OCCNC(=O)c3ccc(OC)cc3OC)nn2)cc1
57	i	O=C(c1ccc[nH]c1=O)N1CCN(Cc2csc(-c3ccccc3)n2)CC1
58	i	CCCCOc1ccc(-c2cc3c(=O)n(CC(=O)Nc4ccc5c(c4)OCCO5)ccn3n2)cc1
59	i	O=C(NC1CCN(C(=O)c2cn(-c3cccc(Cl)c3)nn2)CC1)C1CC1
60	i	O=c1c(-c2ccc(NS(=O)(=O)CCCCl)cc2)coc2cc(O)ccc12
61	i	CCOc1cc(C(=O)Nc2ccc3c(c2)CCCN3C(=O)C2CC2)cc(OCC)c1OCC
62	i	Cc1ccc(C)c(S(=O)(=O)N2C(=S)NC(=O)C2Cc2ccccc2)c1 (centres undefined)
63	i	COc1cccc(C(=O)NCC2CCN(C(=O)c3cccnc3)CC2)c1OC
64	i	COc1cc(C(=O)N2CC(c3nc(-c4ccco4)no3)C2)cc(OC)c1OC
65	i	CCOC(=O)c1sc(NC(=O)Nc2cccs2)nc1C
66	i	CC(C)C(=O)NCCCOc1cccc2cccnc12
67	i	COc1ccc(CNc2nccc(-n3nc(C)cc3C)n2)c(OC)c1
68	i	O=C(NCCC(O)c1ccoc1)c1ccccc1C(F)(F)F (centres undefined)
69	i	COc1ccc(N2C(=O)C3N=NN(Cc4cc(C)ccc4C)C3C2=O)cc1 (centres undefined)
70	i	CSc1nc2n(n1)C(C(C)C)C(C(=O)Nc1ccc(C)cc1C)=C(C)N2 (centres undefined)
71	i	COc1ccccc1N1CCN(C(=O)CCn2cnc3c([nH]c4ccccc43)c2=O)CC1
72	i	Cc1cc(=O)[nH]c(-n2nc(-c3cccs3)cc2NC(=O)c2ccc(F)c(F)c2)n1
73	i	O=C(c1nc2ccccc2s1)N1CCN(CCc2nc(-c3cccs3)cs2)CC1
74	i	CS(=O)(=O)c1ccc(Nc2nc(C(=O)NCc3ccccc3Cl)cs2)cc1
75	i	COc1ccc(C(=O)Nc2oc3c(C)cccc3c(=O)c2-c2cccs2)cc1
76	i	CCC(C(=O)Nc1ccc(CN2CCN(c3ccccn3)CC2)cc1)c1ccccc1 (centres undefined)
77	i	CCOC(=O)c1oc2cc(OCC(=O)OC)ccc2c(=O)c1-c1ccc(OC)c(OC)c1
78	i	O=C(NCCN1CCOCC1)C(=O)c1cn(CC(=O)N2CCOCC2)c2ccccc12
79	i	CCSc1nnc(NC(=O)CN2CCC(COCc3ccc(F)cc3)CC2)s1
80	i	COC(=O)C1=C(C)N(C)C(=O)NC1c1ccccc1 (centres undefined)
81	i	CC(=O)Nc1ccc(C(=O)NCCNC(=O)c2ccccc2)cc1
82	i	O=C(Cc1csc(-n2cccc2)n1)NCc1ccc2c(c1)OCO2
83	i	N#CC1=CN(c2cccc(F)c2)c2cc(F)ccc2S1(=O)=O
84	i	O=C(Cn1nc(-c2ccco2)c2sc(N3CCCC3)nc2c1=O)Nc1ccccc1
85	i	O=C1Nc2ccc(I)cc2/C1=C/c1cc(Br)c(O)c(Br)c1
86	i	CCCCOc1ccc(C2CC3C4NN=C(SCC(=O)NCc5ccccc5)N4C=CN3N2)cc1 (centres undefined)
87	i	CCCOc1ccccc1C(=O)Nc1nonc1-c1ccc(C)cc1
88	i	O=c1[nH]c(N2CCN(c3ccccn3)CC2)nc2c(-c3ccc(Br)cc3)csc12
89	i	COc1ccc(F)cc1S(=O)(=O)NCC1(CO)CC1
90	i	N#Cc1ccc(OC2CCN(C(=O)COc3ccccc3F)CC2)nc1
91	i	COc1ccc(Cl)cc1C(=O)Nc1cnoc1
92	i	CCOc1ccc(-c2csc3c(=O)n(CC(=O)OC(C)(C)C)cnc23)cc1OCC
93	i	COc1ccc(OC)c(-c2csc(-c3nnn(-c4ccc(Cl)cc4)c3N)n2)c1
94	i	O=C(O)Cc1ccccc1Nc1c(F)cccc1F
95	i	CC(C)(Oc1ccc(Cl)cc1)C(=O)Nc1cnc(Oc2ccccc2F)nc1
96	i	CCOc1cc(S(=O)(=O)NCc2ccccn2)ccc1Br

The results go on.
nr	GIRK2 activ	compound
97	i	C=CCOc1cccc(C2c3c(oc4ccc(C)cc4c3=O)C(=O)N2c2cc(C)on2)c1 (centres undefined)
98	i	Oc1ccc(CCNc2ncnc3[nH]ncc23)cc1
99	i	O=C(CCn1nnc2ccccc2c1=O)Nc1ccc(Br)cc1F
100	i	CCOc1ccc(C(C)C)cc1S(=O)(=O)NCCn1nc(-c2ccc(OC)cc2)ccc1=O
101	i	COc1cc(NC(=O)COc2ccc(Cl)c(C)c2)ncn1
102	i	CCOC(=O)C1CCCN(c2nc(Nc3ccc(C)cc3)c3n[nH]nc3n2)C1 (centres undefined)
103	i	COc1cccc(CNC(=O)CSc2cc(C)nc(-c3cccnc3)n2)c1
104	i	CC(=O)c1ccc(NC(=O)c2ccc(COc3ccccc3)o2)cc1
105	i	COc1ccccc1C1C2=C(Nc3nnnn31)c1ccccc1OC2c1cccnc1 (centres undefined)
106	i	O=C1CCCC(=O)N1CCS(=O)(=O)NCC1CCN(Cc2cccs2)CC1
107	i	N#C/C(=C\c1ccccc1)c1nc2ccccc2o1
108	i	C#CCCNC(=O)Nc1ccccc1
109	i	CC(C(=O)N1CCc2ccccc21)n1nc(-c2ccc(F)cc2)ccc1=O (centres undefined)
110	i	CCc1cccc(NC(=O)Nc2cnc(N3CCOCC3)nc2)c1
111	i	Cn1c(=O)[nH]c(=O)c2c1nc(NCCN1CCOCC1)n2Cc1ccc(F)cc1
112	i	N#C/C(=C\c1ccc(O)c(O)c1)C(=O)NCc1ccccc1
113	i	O=C(Nc1oc2ccccc2c(=O)c1-c1ccc2c(c1)OCO2)c1cccs1
114	i	Cc1cc(S(=O)(=O)NCCn2nc(-c3ccc(F)cc3)ccc2=O)ccc1F
115	i	COc1c(C)cnc(Cn2cc(-c3nc(C)no3)ccc2=O)c1C
116	i	COC(=O)c1ccccc1NS(=O)(=O)c1c(-c2ccc(C)cc2)csc1C(=O)OC
117	i	COc1ccc(Cl)cc1NC(=O)CCCSc1ccc(NC(C)=O)nn1
118	i	COc1ccc(-c2ccc(N3CCCC(C(=O)Nc4ccc(C(C)=O)cc4)C3)nn2)cc1 (centres undefined)
119	i	Cc1ccc(NC(=O)C2CCN(c3c(C#N)cnc4ccccc34)CC2)cc1Cl
120	i	O=C(CN1CCCCC1)Nc1oc2ccccc2c(=O)c1-c1ccc(Cl)cc1
121	i	Cc1ccc(NC(=O)Cn2c(-c3ccc(F)cc3)nc3c(c2=O)CCN(Cc2ccccc2)C3)c(C)c1
122	i	NC(=O)c1nnn(-c2ccc(NC(=O)Cc3cccs3)cc2)n1
123	i	NC(=O)CSc1nnc(-c2ccc(S(=O)(=O)N3CCCCCC3)cc2)o1
124	i	COc1ccc(C)c2sc(N(Cc3ccncc3)C(=O)c3ccc(Br)s3)nc12
125	i	Cc1cn2c3c(=O)n(CCc4ccccc4)c(=O)n(C)c3nc2n1CC(C)C
126	i	O=C(c1nnn(-c2ccc(Cl)cc2)c1-c1cccnc1)N1CCc2ccccc2C1
127	i	Cc1ccc2c(=O)c(C(=O)Nc3ccccc3)cn(CC(=O)Nc3ccccc3Cl)c2n1
128	i	Cc1cc(C)n(-c2ccc(=O)n(CC(=O)Nc3ncccc3C)n2)n1
129	i	Cn1nc(-c2ccccc2)cc1C(=O)N1CCN(c2ccccn2)CC1
130	i	CNC(=O)c1cncc(/C=C/c2c(C)cccc2C)c1

An excerpt; count on the stated rates, not on these rows.
